# PrP UTR inh: suppresses PrP 5' UTR mRNA reporter expression | cell-based PrP 5' UTR mRNA reporter, plate reader | inhibition, % (concentration not given with the values) | 340,000 tested, 0.35% active;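 active = every replicate at 50% or more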;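 note: 0 = median of the neutral control wells; tested in H4 reporter cells; numbers are from one replicate; inactives centre near -14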
# Mtb hypoxia inh: reduces hypoxia-regulated biosensor signal in M. tuberculosis. fluorescence inhibition, % (concentration not given with the values). AID 1159583. M. tuberculosis hypoxia-regulated fluorescent reporter, fluorescence. 300,000 tested, 0.1% active;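 active = 35 to 45% if threefold the growth effect, above 45% if 1.5-fold the growth effect; inactive = the rest, general growth blockers included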;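 note: wells of about 50 µL received 100 nL stock; 0% = vehicle wells and 100% = reference inhibitor wells; whole bacteria with a GFP reporter of the hypoxia response; strong numbers were not always called active; many hits fall short of the cut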
# BJeLR viability: BJeLR cell viability loss; 300,000 tested, 0.17% active; BJeLR (HRASV12) viability, CellTiter-Glo ATP luminescence, 48 h; reference of the scale not given here; AID 1554; inhibition, % (test concentration not listed);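 active = replicate mean above 50%; inconclusive = above 50% but judged a plate artefact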;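 note: 50 nL library stock added to about 25 µL; numbers are from one replicate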
# Sa RN4220 lethal: kills Staphylococcus aureus RN4220; S. aureus RN4220 growth, OD600, 16 h; inhibition, % (concentration not given with the values); 330,000 tested, 0.33% active; AID 1259311;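 active = z-score of -3 or lower and OD600 up to 0.18 on both plates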;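 note: plate controls were untreated cells for no effect and reference antibiotic for full effect; stock transfer was 100 nL into about 80 µL; one replicate is shown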
# Autofluor counter: counter-screen for toxin protease inhibitors: compound fluorescence | AID 624483 | fluorescence intensity (concentration not given with the values) | 360,000 tested, 3.1% active | compound autofluorescence counterscreen, microsphere flow cytometry; hits give high values;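 active = at least 3 SD above the mean of all compounds, about 16000 in these data; inconclusive = too few beads counted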;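 note: 100 nL of 1 mM stock went into each well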
# Sa ugtP lethal: growth inhibition of S. aureus ugtP deletion strain; S. aureus RN4220 ugtP deletion, OD600 growth, 16 h; some inactives read as strong as hits; growth inhibition, % (test concentration not listed); 330,000 tested, 0.54% active; AID 1259309;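 active = z-score under -3 and OD600 up to 0.15 on both plates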;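 note: plate controls were untreated wells for no effect and antibiotic for full effect; wells of about 80 µL received 100 nL stock; the first replicate is given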
# Mtb hypoxia inh growth: also measured in Mtb hypoxia inh; calls as there; growth inhibition, %; measured here: M. tuberculosis growth (absorbance);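 0% = vehicle and 100% = reference antibiotic; read after six days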
# Starred values were filed as active, the others as inactive; ? = inconclusive; · = no result given; & = joins results of further samples. Outcome played no part in choosing rows; any-hit rate near 4%.
SMILES,PrP UTR inh,Mtb hypoxia inh,Mtb hypoxia inh growth,BJeLR viability,Sa RN4220 lethal,Autofluor counter,Sa ugtP lethal
Cn1ccc(-c2ccccc2)n1,-30.9,3.9,15.1,-3.3,4.4,4418,14.0
O=C(COC(=O)C12CC3CC(CC(C3)C1)C2)Nc1ccc(OC(F)F)cc1,-6.8,4.7,13.0,2.0,-2.8,9462,-15.4
CCOC(=O)C1C2COc3ccc(Br)cc3C2N2C(=O)N(c3cccc(F)c3)C(=O)[C@@]12C (stereo partly specified),·,1.0,7.2,·,10.7,·,2.1
CCc1cccc2cc3c(N)c(C(=O)Nc4ccc(S(=O)(=O)N5CCCC5)cc4)sc3nc12,-24.2,·,·,-3.0,·,8675,·
O=C(COc1ccccc1)NCCSCc1ccco1,-10.8,·,·,-0.6,6.4,3609,5.6
CC(CC(=O)Nc1cc(S(=O)(=O)N2CCOCC2)ccc1OCC(F)(F)F)c1ccccc1 (stereo unspecified),-19.5,-2.9,-2.2,·,-1.8,3887,-2.4
Fc1ccc(-n2c(-c3ccc4ccccc4n3)n[nH]c2=S)cc1,-9.4,·,·,2.2,·,4344,·
Cn1c(=O)[nH]c(=O)c2c1nc(Br)n2CCOc1ccccc1,-16.2,9.1,5.0,4.9,1.5,3299,4.4
CCOC(=O)N1CCC(NC(=O)c2cc(-c3ccc(OC)cc3)nc3ccccc23)CC1,-9.1,8.6,-3.2,1.1,3.3,5309,4.2
CCN1CCN(c2ccc(S(=O)(=O)N3CCOCC3)cc2NC(=O)CCOc2ccccc2)CC1,-17.8,-1.6,2.0,-7.5,-2.6,5329,-6.8
O=C(NCC(c1cccnc1)N1CCN(c2ccccc2)CC1)c1ccc2c(c1)OCO2 (stereo unspecified),-18.6,3.9,9.5,-4.6,3.8,3593,0.6
CCCCNc1c(-c2ccc(OC)c(SC3CCCCC3)c2)nc2ccc(C)cn12,-11.5,5.4,12.8,·,-0.7,3160&4414,-0.7
CSCCC(NC(=O)c1ccccc1)C(=O)NCCCSc1ccccc1 (stereo unspecified),2.9,-7.8,3.3,·,-1.4,?,-6.0
CC1(C)CC(=O)c2cnc(NCc3ccco3)nc2C1,-41.6,·,·,·,-0.2,5108,-1.9
CCC(CC)NC(=O)c1nn(Cc2ccccc2)c(=O)c2ccccc12,-20.2,-2.3,2.6,-1.7,2.0,3909,3.3
CCC(c1nc2ccccc2c(=O)n1-c1cccnc1)N1C(=O)c2ccccc2C1=O (stereo unspecified),-38.5,3.4,3.2,-15.1,3.4,9097,0.5
COC(=O)c1c(NC(=O)COC(=O)c2ccc(C)s2)sc2c1CCCCC2,-15.8,2.1,0.7,4.6,2.5,2686,-19.3
COc1ccc(-c2ccc(-c3cc(=O)oc4cc(OC)c(OC)c(OC)c34)cc2)cc1OC,-14.7,-3.3,6.1,·,0.9,3031,12.5
O=S(=O)(c1ccc2c(c1)CCCN2)N1CCCC2CCCCC21 (stereo unspecified),-12.2,-4.1,-3.5,-6.6,7.8,3832,0.5
Cc1cc(C)c2cccc(NC(=S)NC(=O)c3ccccc3)c2n1,-15.0,-0.8,5.1,-2.5,19.5,7770,41.2
Cc1cc(NC(=O)COc2cccc3cccnc23)no1,·,-86.2,-17.0,-1.6,-3.1,·,-10.3
Cc1cc(SCC(=O)c2ccccc2)nc(=O)[nH]1,-62.6,-7.0,0.6,-1.8,2.0,·,2.7
Cc1cc(Cl)ccc1OCCCC(=O)N1CCN(S(=O)(=O)c2ccccc2)CC1,-19.3,1.6,6.4,6.8,0.3,4998,-6.5
Cc1ccc(-c2ccc(C=NNC(=O)c3cc4c(ccc5ccccc54)o3)o2)cc1[N+](=O)[O-],·,2.2,1.1,·,0.7,·,-3.8
Cc1cccc(NP(C)(=O)c2nc3c(s2)CCCC3)c1 (stereo unspecified),-11.0,14.9,7.4,-1.8,3.3,2149,7.7
CCC(C)c1ccccc1NC(=O)COC(=O)C1=COCCO1 (stereo unspecified),-14.0,1.0,5.0,0.9,5.5,5084,-1.7
CC(=O)c1ccc(S(=O)(=O)N2CCN(CC(=O)Nc3ccc(Cl)c([N+](=O)[O-])c3)CC2)cc1,-12.9,-0.8,8.1,·,-0.3,4080,-4.2
CCc1cc2c(-c3ccccc3)cc(=O)oc2cc1OC(=O)c1cccs1,-11.3,11.7,-4.2,·,10.0,2240,-2.0
CC1(C)OC(C)(C)/C(=C\c2ccccc2[N+](=O)[O-])C1=O,6.8,-7.6,7.5,2.4,0.3,3314,-1.1
c1ccc(Cc2nnc3sc(-c4ccc5c(c4)OCO5)nn23)cc1,-12.4,3.1,7.7,5.0,2.8,10869,10.0
Cc1ccc2cc(C#N)c(N3CCCN(S(=O)(=O)c4ccc(F)cc4)CC3)nc2c1,-34.0,9.5,4.1,4.6,12.9,13281,-3.3
O=C(ON=C(c1ccccc1)c1ccccn1)c1cccc2ccccc12,·,0.1,-1.6,·,-0.8,·,4.1
CN(C(=O)CSc1nc(-c2ccccc2)cs1)C1CCS(=O)(=O)C1 (stereo unspecified),84.8*,3.2,3.6,-6.5,1.7,3182,-1.0
CCN(CC(=O)Nc1ccc(NC(C)=O)cc1)C(=O)CSc1nnc(-c2ccco2)n1CC,-10.1,-5.9,3.9,6.4,1.2,5657,1.3
Cc1ccc(NC(=O)CSc2n[nH]c(-c3cccnc3)n2)cc1Cl,-10.0,11.3,2.6,1.9,1.9,3919,-16.1
Cc1ccc(NC(=O)C2CCN(C(=O)[C@@H]3Cc4ccccc4CN3)CC2)cc1,-7.7,13.2,7.1,10.8,0.6,4552,5.5
COc1ccc(N2CCN(C(=S)Nc3cc(C)ccc3C)CC2)cc1,-30.0,-2.8,-3.9,-0.1,2.8,4164,0.8
Cc1nc2c3ccccc3[nH]c(=O)n2n1,-18.1,3.5,8.5,3.3,0.2,8858,-0.8
COc1ccccc1N(CC(=O)NCCSc1ccccn1)S(=O)(=O)c1ccccc1,-20.3,11.2,5.3,3.5,6.0,3810,-0.2
CC1CCCCC1NC(=O)CN1CCC(O)(c2ccc3c(c2)OCO3)CC1 (stereo unspecified),-27.1,10.8,1.1,-10.1,-1.4,4117,0.9
COc1ccccc1NC(=O)c1ccc2c(c1)N(CC(=O)NC(C)(C)C)C(=O)C(C)(C)O2,-29.1,12.4,1.6,-3.6,1.7,3464,5.4
O=c1[nH]c(CSc2nnc(Nc3ccccc3)s2)nc2ccccc12,-9.3,-5.5,-5.9,0.2,9.5,6149,11.8
C=CCn1c(COc2ccc(F)cc2)nnc1SCC(=O)c1c[nH]c2c(CC)cccc12,-11.4,-6.5,-4.0,8.5,1.3,2074,-2.8
Cc1ccc(S(=O)(=O)N(C)C)cc1NC(=O)COc1ccccc1C(=O)Nc1ccccc1,-1.3,-1.8,6.9,7.9,0.0,?,-9.2
O=S(=O)(c1ccccc1)N1CCC(c2ccccc2)CC1,-19.7,3.9,3.8,2.4,6.6,3428,12.1
CCCC(=O)NC(NC1CCS(=O)(=O)C1)C(Cl)(Cl)Cl (stereo unspecified),-21.6,8.0,11.4,-1.5,2.1,3383,-5.3
O=C(Nc1nnc(SCC(=O)N2CCCc3ccccc32)s1)c1ccccc1,-14.0,13.2,5.2,-0.7,1.8,2609,-7.8
CC(OC(=O)CCc1nc2ccccc2c(=O)[nH]1)C(=O)Nc1ccc2c(c1)OCO2 (stereo unspecified),-20.2,-2.6,-2.2,-7.1,0.8,5997,1.0
CCN(CC)C(=O)/C(=C/c1cn(S(=O)(=O)N(C)C)c2ccccc12)NC(=O)c1ccc(OC)cc1,-4.1,-1.6,8.1,-5.1,3.8,4705,-3.4
COC(=O)[C@H]1C[C@@H]1[C@H](NC(=O)c1cnccn1)c1ccccc1,-16.8,·,·,-7.1,·,4316,·
c1ccc(-n2nnnc2Oc2ccc(-c3nnco3)cc2)cc1,-29.7,-55.4,32.1,3.1,6.8,3901,1.2
COc1ccccc1OCCC(=O)OCC(=O)Nc1ncc(Cl)cc1Cl,-2.0,·,·,-3.7,2.3,4385,-6.8
O=C(CN1CCCCCC1)Nc1ccc(Br)cn1,-5.5,18.8,28.3,-9.3,4.5,4192,3.2
Cc1ccccc1C(=O)NC(=S)NCC1CCCO1 (stereo unspecified),-17.7,·,·,2.9,2.3,2819,-1.1
Cc1noc(C)c1COc1ccc(C(=O)OCC(=O)Nc2ccc(S(N)(=O)=O)cc2)cc1,-12.0,14.3,-1.3,·,5.9,3209,6.8
COC(=O)c1ccc(COc2ccc(/C=C/C(=O)c3ccc(OC)c(CSCC(=O)O)c3)cc2OC)cc1,-23.5,5.6,-9.2,7.9,22.1,8232,8.1
CC(C)CN1C(Nc2ccccc2)=NCC1C (stereo unspecified),·,6.6,3.1,·,4.7,·,-11.8
COc1cc2nc(Cl)nc(N3CCN(C)CC3)c2cc1OC,·,14.9,5.9,-1.5,4.3,·,4.0
O=S(=O)(NCCOCC(F)(F)F)c1ccc2oc3ccccc3c2c1,-6.7,·,·,-3.9,1.4,4876,-2.7
CCOc1ccc(CCNC(=O)COC(=O)/C=C/c2ccccc2)cc1OCC,-21.2,-0.9,-7.9,-3.2,0.0,6122,6.3

# Remaining list, next part:
SMILES,PrP UTR inh,Mtb hypoxia inh,Mtb hypoxia inh growth,BJeLR viability,Sa RN4220 lethal,Autofluor counter,Sa ugtP lethal
COCC(=O)N1CCN(c2cccc(C(F)(F)F)c2)CC1,-16.8,-2.7,8.9,11.1,1.8,4318,1.3
COc1ccc(-c2csc(NCCc3nc4cc(Cl)c(Cl)cc4n3CCCO)n2)cc1,-17.6,19.5,1.2,-1.3,-8.3,3483,15.5
Cc1cc(=O)oc(C)c1C(=O)NCCC1=CCCCC1,-32.1,7.0,6.2,1.2,6.1,9357,6.6
COc1ccccc1COC(=O)c1cccc(S(=O)(=O)N2CCCC2)c1,-5.8,-13.8,-9.8,·,3.5,5495,10.9
CCOC(=O)C1CCCN(C(=O)CCCn2c(=O)c3cccn3c3cccnc32)C1 (stereo unspecified),0.4,-2.9,-5.5,3.6,-4.4,5293,-3.2
COc1ccc(N2CC(C(=O)Nc3ccccc3C(=O)NCc3ccco3)CC2=O)cc1 (stereo unspecified),-27.7,12.1,10.7,-2.4,0.8,8439,-0.3
Cc1cc(NC(=O)Cn2cnc3sc(C)c(C)c3c2=O)no1,·,4.4,-1.7,·,3.3,3873,-3.0
Cc1sc2nc(SCC(=O)NCc3ccco3)n(Cc3ccccc3)c(=O)c2c1C,-18.6,6.7,-3.7,8.0,-9.4,2760,2.5

# A draw from above in order of formula weight, rising.
SMILES,PrP UTR inh,Mtb hypoxia inh,Mtb hypoxia inh growth,BJeLR viability,Sa RN4220 lethal,Autofluor counter,Sa ugtP lethal
CC(C)CN1C(Nc2ccccc2)=NCC1C (stereo unspecified),·,6.6,3.1,·,4.7,·,-11.8
Cc1cc(=O)oc(C)c1C(=O)NCCC1=CCCCC1,-32.1,7.0,6.2,1.2,6.1,9357,6.6
Cc1cc(NC(=O)Cn2cnc3sc(C)c(C)c3c2=O)no1,·,4.4,-1.7,·,3.3,3873,-3.0
COc1cc2nc(Cl)nc(N3CCN(C)CC3)c2cc1OC,·,14.9,5.9,-1.5,4.3,·,4.0
O=S(=O)(NCCOCC(F)(F)F)c1ccc2oc3ccccc3c2c1,-6.7,·,·,-3.9,1.4,4876,-2.7
COc1ccccc1COC(=O)c1cccc(S(=O)(=O)N2CCCC2)c1,-5.8,-13.8,-9.8,·,3.5,5495,10.9
CCOc1ccc(CCNC(=O)COC(=O)/C=C/c2ccccc2)cc1OCC,-21.2,-0.9,-7.9,-3.2,0.0,6122,6.3
CCOC(=O)C1CCCN(C(=O)CCCn2c(=O)c3cccn3c3cccnc32)C1 (stereo unspecified),0.4,-2.9,-5.5,3.6,-4.4,5293,-3.2
COc1ccc(N2CC(C(=O)Nc3ccccc3C(=O)NCc3ccco3)CC2=O)cc1 (stereo unspecified),-27.7,12.1,10.7,-2.4,0.8,8439,-0.3
COc1ccc(-c2csc(NCCc3nc4cc(Cl)c(Cl)cc4n3CCCO)n2)cc1,-17.6,19.5,1.2,-1.3,-8.3,3483,15.5
COC(=O)c1ccc(COc2ccc(/C=C/C(=O)c3ccc(OC)c(CSCC(=O)O)c3)cc2OC)cc1,-23.5,5.6,-9.2,7.9,22.1,8232,8.1
